Source: PubChem (several laboratories)
PDI turbidity: PDI (human) enzyme inhibition; P07237; PDI insulin aggregation turbidity, A650, 90 min; inhibition, % at 10 µM; 0.052% of 350,000 active; AID 588391;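 active = mean inhibition across replicates of 30% or more, whatever share of single replicates reach that level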;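 also: absorbance from insulin aggregation driven by PDI reduction with DTT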
Target sequence (P07237 whole entry, looked up): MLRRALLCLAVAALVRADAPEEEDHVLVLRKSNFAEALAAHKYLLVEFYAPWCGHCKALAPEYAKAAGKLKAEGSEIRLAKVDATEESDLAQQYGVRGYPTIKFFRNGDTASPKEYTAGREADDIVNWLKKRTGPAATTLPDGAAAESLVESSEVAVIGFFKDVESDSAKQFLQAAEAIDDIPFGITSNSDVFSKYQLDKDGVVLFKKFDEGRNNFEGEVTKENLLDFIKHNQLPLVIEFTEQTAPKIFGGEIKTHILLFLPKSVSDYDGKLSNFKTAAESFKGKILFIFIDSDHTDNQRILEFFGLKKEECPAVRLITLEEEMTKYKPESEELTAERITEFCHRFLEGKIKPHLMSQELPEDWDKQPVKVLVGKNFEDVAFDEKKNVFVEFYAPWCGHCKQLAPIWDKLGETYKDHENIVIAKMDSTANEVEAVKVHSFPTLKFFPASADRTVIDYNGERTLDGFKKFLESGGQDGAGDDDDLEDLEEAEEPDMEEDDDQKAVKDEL
ABCB6 inh MLPCN: human ABCB6 transporter inhibition; Q9NP58; K562-ABCB6 porphyrin accumulation, flow cytometry, 1 h; active compounds read low; fluorescence ratio to DMSO, % at 10 µM; 0.19% of 360,000 active; AID 602162;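 active = fluorescence ratio to DMSO below 75%, the collection mean minus 3 SD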;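 also: signal is porphyrin accumulated inside mitochondria; 100% equals median channel fluorescence of DMSO control wells; lower ratio means ABCB6 inhibition with less porphyrin fluorescence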
CaV13 ICDI inh: Primary screen for inhibitors of IQ motif and Ca2+-dependent inactivation inhibitor domain binding in CACNA1D, Förster resonance energy transfer in living cells, … | HEK cells, CFP/YFP FRET ICDI-IQ, plate reader, 10 min; percent FRET-ratio fall versus neutral wells | inhibition, % at 12.3 µM | 0.098% of 340,000 active;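 active = mean replicate inhibition of at least 30% and at least 1% of replicates passing that level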;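 also: 0% = median of the neutral control wells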
H9c2 protect: protects H9c2 cardiomyocytes from peroxide injury; H2O2 injury protection, ATPLite, 2 h; protection from H2O2 cell death, % at 20 µM; 0.63% of 360,000 active;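 active = compounds giving at least 50% protection of heart cells from peroxide-induced death in the single-dose screen, raw or plate-pattern-corrected value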;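 also: 0% = DMSO wells with peroxide and 100% = DMSO wells without peroxide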
aDG glyco act: alpha-DG glycosylation activation. activation, % at 10 µM. AID 624168. 0.22% of 360,000 active. Pro5-aDG cells, alpha-DG glycosylation AlphaScreen (IIH6); 0% Pro5, 100% B10-LARGE cell signal;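 active = activation of at least 8% versus controls, or a plate z-score of at least 8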;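 also: Pro5 are CHO cells carrying HIG-tagged alpha-DG that lacks glycosylation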
Vif imaging: inhibitors of HIV Vif; inhibition, % at 7.49 µM; 0.35% of 340,000 active; HEK293T cells, Vif self-association by quenched fluorescence, imaging, 24 h; AID 602346; in the data active = inhibition above about 50%, passing the limit was not always enough; also: some results filed as inactive read as strong as hits
Active calls of the source: *; nt = no result given; & = joins results of further samples. A portion of the library; count on the stated rates, not on these rows.

Labels used below – A = PDI turbidity; B = ABCB6 inh MLPCN; C = CaV13 ICDI inh; D = H9c2 protect; E = aDG glyco act; F = Vif imaging
CCCN1CCC[C@@H]2Cc3[nH]ncc3C[C@H]21
  A: 0 | B: 97 | C: -5 | D: 10 | E: 0.2 | F: -4
Cn1c(O)c(C=Nc2ccc3c(c2)CCC3)c(=O)n(C)c1=O
  A: -15 | B: 100 | C: nt | D: -14 | E: 0.2 | F: 1
CC(C)c1ccc(OCC(=O)N2CCN(C)CC2)c(Br)c1
  A: -4 | B: 95 | C: -6 | D: -3 | E: 0.2 | F: -2
Clc1ccc(COC(Cn2ccnc2)c2ccc(Cl)cc2Cl)cc1 (centres undefined)
  A: -1 | B: 97 | C: -4 | D: -2 | E: 0.8 | F: -5&-1
CN1CCN(C(=S)SCC(=O)Nc2ccc(Cl)cc2C(=O)c2ccccc2)CC1
  A: 8 | B: 104 | C: -4 | D: 31 | E: 0.1 | F: 1
Cc1ccc(N2C(=O)NC(=O)/C(=C\C=C\c3ccco3)C2=O)cc1
  A: -7 | B: 100 | C: -3 | D: 24 | E: 0.0 | F: nt
CCOP(=O)(OCC)C(O)c1ccc(OC)cc1OC (centres undefined)
  A: 1 | B: 100 | C: -5 | D: -3 | E: 0.0 | F: 1
O=C(CCNS(=O)(=O)c1ccccc1)Nc1ccc(Cl)cc1C(=O)c1ccccc1
  A: 0 | B: 94 | C: -4 | D: -10 | E: 0.2 | F: 2
Cc1nc2ccccn2c1P(=S)(N1CCCCC1)N1CCCCC1
  A: -3 | B: 91 | C: -5 | D: 0 | E: -0.2 | F: -7
COC(=O)CN1C(=O)C2(C(C(=O)OC)=C(N)Oc3ccccc32)C2=C1CC(C)(C)CC2=O (centres undefined)
  A: -2 | B: 100 | C: -7 | D: 3 | E: 0.0 | F: -4

Single records, as listed above. Order of values: PDI turbidity | ABCB6 inh MLPCN | CaV13 ICDI inh | H9c2 protect | aDG glyco act | Vif imaging
Results for CC(C)c1ccc(OCC(=O)N2CCN(C)CC2)c(Br)c1 → -4 | 95 | -6 | -3 | 0.2 | -2
Results for CN1CCN(C(=S)SCC(=O)Nc2ccc(Cl)cc2C(=O)c2ccccc2)CC1 → 8 | 104 | -4 | 31 | 0.1 | 1
Results for Clc1ccc(COC(Cn2ccnc2)c2ccc(Cl)cc2Cl)cc1 (centres undefined) → -1 | 97 | -4 | -2 | 0.8 | -5&-1
Results for COC(=O)CN1C(=O)C2(C(C(=O)OC)=C(N)Oc3ccccc32)C2=C1CC(C)(C)CC2=O (centres undefined) → -2 | 100 | -7 | 3 | 0.0 | -4
Results for O=C(CCNS(=O)(=O)c1ccccc1)Nc1ccc(Cl)cc1C(=O)c1ccccc1 → 0 | 94 | -4 | -10 | 0.2 | 2

Back to the main list with the two entries that preceded the break.
Labels used below – A = PDI turbidity; B = ABCB6 inh MLPCN; C = CaV13 ICDI inh; D = H9c2 protect; E = aDG glyco act; F = Vif imaging
Cc1nc2ccccn2c1P(=S)(N1CCCCC1)N1CCCCC1
  A: -3 | B: 91 | C: -5 | D: 0 | E: -0.2 | F: -7
COC(=O)CN1C(=O)C2(C(C(=O)OC)=C(N)Oc3ccccc32)C2=C1CC(C)(C)CC2=O (centres undefined)
  A: -2 | B: 100 | C: -7 | D: 3 | E: 0.0 | F: -4
NCCc1ccc(S(=O)(=O)F)cc1
  A: -2 | B: 100 | C: -5 | D: -14 | E: 0.2 | F: -1
CC1CC=CCC12C(=O)NC(=S)NC2=O (centres undefined)
  A: 8 | B: 163 | C: -6 | D: 1 | E: -0.2 | F: -6
Cn1c(O)c(C=NCCN2CCNCC2)c(=O)n(C)c1=O
  A: 1 | B: 99 | C: -5 | D: 0 | E: 0.2 | F: -2
C#C[C@]1(O)CC[C@H]2[C@@H]3CCC4=CC(=O)CC[C@]4(C)[C@H]3CC[C@@]21C
  A: -2 | B: 92 | C: -5 | D: 9 | E: 0.1 | F: 3
Cc1cc(C)cc(N2C(=O)NC(=O)/C(=C\C=C\c3ccco3)C2=O)c1
  A: -3 | B: 99 | C: -5 | D: 61* | E: 0.1 | F: nt
CCN1CCN(c2ccc([N+](=O)[O-])cc2C#N)CC1
  A: 13 | B: 95 | C: -7 | D: -4 | E: 0.0 | F: -6
CCOC(=O)C1(Cc2ccc(Cl)cc2)CCN(C(C)CCn2cccn2)CC1 (centres undefined)
  A: 6 | B: 101 | C: 2 | D: 0 | E: 1.1 | F: -2
